Screening results (PubChem)
PABP FP inh: blocks human PABP binding to poly(A) RNA; inhibition, % at 35 µM; AID 2014; 290,000 tested, 1% active; fluorescence polarization;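 active = 50% or more with normal probe brightness, or confirmed in later tests; inconclusive = above 50% with abnormal brightness, or retests that disagree; inactive = below 50% or failed in later tests; about a fifth of its hits are not listed in these tables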;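 also: calls also rest on retests at 20 µM and on dose response follow-up; controls were probe without protein and protein plus probe with vehicle; some compounds called inactive have numbers as strong as hits; many hits fall short of the cut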
Target sequence (P11940 whole entry, looked up): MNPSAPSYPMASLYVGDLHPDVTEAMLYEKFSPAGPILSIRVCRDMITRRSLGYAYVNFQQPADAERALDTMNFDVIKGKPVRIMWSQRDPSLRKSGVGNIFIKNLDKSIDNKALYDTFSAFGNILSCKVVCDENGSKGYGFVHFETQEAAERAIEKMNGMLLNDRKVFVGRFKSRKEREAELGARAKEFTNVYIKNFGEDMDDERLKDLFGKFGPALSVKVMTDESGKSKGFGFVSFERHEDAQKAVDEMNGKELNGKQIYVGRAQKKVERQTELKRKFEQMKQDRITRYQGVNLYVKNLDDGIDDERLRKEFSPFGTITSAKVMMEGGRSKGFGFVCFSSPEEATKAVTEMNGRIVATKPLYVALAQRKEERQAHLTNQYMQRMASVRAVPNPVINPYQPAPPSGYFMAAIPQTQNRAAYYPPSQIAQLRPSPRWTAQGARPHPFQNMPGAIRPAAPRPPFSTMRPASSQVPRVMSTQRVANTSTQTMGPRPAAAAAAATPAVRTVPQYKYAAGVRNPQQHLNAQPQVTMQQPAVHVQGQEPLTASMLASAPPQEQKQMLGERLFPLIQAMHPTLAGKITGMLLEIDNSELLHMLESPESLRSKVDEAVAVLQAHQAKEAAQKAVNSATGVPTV
eIF4H inh: inhibitors of RNA binding by human eIF4H. Q15056. eIF4H fluorescence polarization binding assay. inhibition, % at 35 µM. 290,000 tested, 0.94% active;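 active = 50% or more with normal probe brightness, or confirmed in later tests; inconclusive = above 50% with abnormal brightness, or retests that disagree; inactive = below 50% or failed in later tests; about a fifth of its hits are not listed in these tables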;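 also: calls also rest on retests at 20 µM and on dose response follow-up; 0% = protein and probe with vehicle and 100% = probe without protein; strong numbers were not always called active; many hits fall short of the cut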
CSC inhib: blocks cancer stem cells | inhibition, % at 7.5 µM | 300,000 tested, 1.1% active | AID 2717 | cancer stem cell-like cells viability, luminescence;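 active = mean at 75% or more and at least half the replicates too; inconclusive = mean and replicates disagree; tested in HMLE shEcad cells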;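 also: 0% = median of negative and 100% = median of positive control wells; the first replicate is given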
UUG fidelity: modulators of start codon recognition fidelity in yeast; activity score, % at 18.7 µM; AID 602363; S. cerevisiae UUG-firefly luciferase reporter, luminescence/redox ratio; 350,000 tested, 0.13% active;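 active = replicate mean at a twofold rise or more, about +100% in these data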;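 also: firefly luciferase made from a UUG start codon reports start codon fidelity; reporter light over untreated wells divided by growth signal over untreated wells; some hits fall short of that in this replicate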
MT1-MMP act inh: inhibitors of human MT1-MMP activation; GFP/RFP ratio change, % at 20 µM; AID 651647; HT1080 RFP-PRO-GFP cells, GFP/RFP ratio fluorescence, overnight; percent of plate control window, DMSO zero; 360,000 tested, 0.061% active; P50281;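 active = GFP/RFP ratio change of at least 30% with cell ATP level not reduced by more than half and red fluorescence within 50% of control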; also: strong numbers were not always called active
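Assay system: HT1080 RFP-PRO-GFP cells. Benchmarks: DMSO vehicle wells and RFP-L50D-GFP reporter cell wells. Times: overnight cell settling, then overnight compound exposure, 37 °C, 5% CO2. Compound: 20 µM single dose, 1% DMSO. Read-out basis: GFP/RFP fluorescence ratio.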
HIV Env fusion: HIV envelope-mediated fusion inhibition; HeLa-JRFL Env/CEM21 cell fusion, luciferase; inhibition, % at 12.3 µM; 360,000 tested, 1.1% active; AID 651610;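 active = mean replicate inhibition score of at least 50 and every replicate individually at or above 50; inconclusive = only one of the two criteria met; inactive = mean below 50 and not all replicates reaching 50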;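 also: 0% = plate neutral controls and 100% = maraviroc near 300 nM; one replicate is shown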
Rce1 inh: blocks yeast Ras-converting enzyme | Q03530 | 290,000 tested, 0.27% active | calls only | yeast membranes, quenched prenylated peptide cleavage fluorescence;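 active = fall in fluorescence gain of 50% or more versus controls, with final raw signal at or below 3038400; inconclusive = same 50% fall but final raw signal above 3038400; inactive = fall in fluorescence gain under 50%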;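 also: plate controls were neutral control wells for no effect and wells lacking membranes for full effect; tested at 10 µM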
eIF4H inh retest: also measured in eIF4H inh; calls as there; inhibition, %; compound at 20 µM; confirmation average;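 mean of two retest wells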
PABP FP inh retest: second read-out of PABP FP inh, no call of its own (marks repeat the call); inhibition, %; compound at 20 µM; confirmation repeats;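 mean of two retest wells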
MT1-MMP act inh RFP: recorded beside MT1-MMP act inh, whose call it bears; RFP signal change, %; measured here: RFP expression control read;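 0 = vehicle wells; hits needed this value within 50% of zero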
* marks the source's active call; other numbers are inactive results; i = inactive; u = inconclusive; x = not tested or not shown; & = joins results of further samples; [ ] = dose if it differs, or a comment.

SMILES	PABP FP inh	eIF4H inh	CSC inhib	UUG fidelity	MT1-MMP act inh	MT1-MMP act inh RFP	HIV Env fusion	Rce1 inh	others
N#CC(c1ccccc1)N(CCCCl)C(=O)c1ccccc1 (stereo not given)	21	1	0	-12	2	4	18	i
O=c1nc2s/c(=C\c3ccc(-c4ccccc4[N+](=O)[O-])o3)c(=O)n2nc1-c1ccccc1	17	102	x	x	6	6	-10	i	eIF4H inh retest=-4;PABP FP inh retest=5
COc1cc(/C=C/C(=O)OCC(=O)NC2CC2)cc(OC)c1OC	x	x	1	2	10	0	x	x
COc1ccc(-c2sc3cc4c(cc3c2C#CC2(N)CCCCC2)OCO4)cc1	x	x	130*	18	-3	-1	-32	x
C=CCNc1nc(N2CCCCC2)c(C#N)c2c1CN(Cc1ccccc1)CC2	38	46	37	-9	-18	-10	x	x
COc1ccc(C2Nc3ccccc3C(=O)N2NS(C)(=O)=O)cc1 (stereo not given)	-11	-6	-5	x	11	8	2	i
COc1ccc(CCCC(=O)NC2CCCCC2C)c(C)c1 (stereo not given)	47	-8	8	-13	5	-2	x	i
CC(C)=NN/C(N)=N/C(=S)Nc1ccc(C)cc1	14	4	-17	-10	-2	2	-33	i
COc1ccc(NC(=O)Nc2ccc3c(c2)C(=O)N([C@H](C)CO)C[C@H](C)[C@@H](CN(C)C(=O)Nc2ccccc2)O3)cc1	x	x	x	14&-26	2	1	-17[16.7 µM]	x
CCCCn1c(N)c(N(CC)C(=O)CCNC(=O)c2ccc(Cl)cc2)c(=O)[nH]c1=O	x	x	-27	-14	-3	1	-3	x
CCCOC(=O)CSC1=C(C#N)C(c2ccccc2OC)C(C#N)C(=O)N1 (stereo not given)	7	6	-6	-22	-9	-5	x	i
CCOc1ccc(S(=O)(=O)N2CCCC(C(=O)N3CCOCC3)C2)cc1C (stereo not given)	-4	-8	13	-16	3	-5	x	i
COC(=O)c1cc2c(ccn2-c2ccc(F)cc2)n1CC(C)C	-6	-7	46	-16	-7	-4	16	i
CCOc1ccc2[nH]c(=O)c(C(c3nnnn3C3CCCCC3)N3CCN(CC)CC3)cc2c1 (stereo not given)	-2	-3	-4	-7	2	1	-22	i
Cc1cc2ncc(-c3cccc(Cl)c3)cn2n1	2	-6	-1	x	1	1	-39	x
O=C(Nc1nc2c(s1)CCCC2)c1cccc(S(=O)(=O)N2CCCc3ccccc32)c1	2	-5	15	x	-3	-12	9	i
NCCCCCc1nnc(SCc2ccc(Cl)c(Cl)c2)o1	-5	-1	14	-4	4	2	u	i
CN1CCN(C(c2cc3cc4c(cc3[nH]c2=O)OCCO4)c2nnnn2C2CCCC2)CC1 (stereo not given)	-5	1	5	x	x	x	x	i
CCCCc1ccc(S(=O)(=O)NC(=O)C2(C)CCN2C(=O)CCc2cccs2)cc1 (stereo not given)	x	x	x	8	-1	2	-30	x
O=C(O)c1cccc(S(=O)(=O)N2CCN(c3ccccn3)CC2)c1	-2	6	x	-6	0	-1	-9	i
CC(=O)Nc1cccc(N2C(=O)CC(N3CCC(C(=O)N4CCCCC4)CC3)C2=O)c1 (stereo not given)	2	1	8	-9	0	6	x	i
COCCCNC(=O)Cn1cc2c(n1)CCC(C)C2 (stereo not given)	-2	-19	x	-18	0	3	1	i
COc1cccc(C(=O)NOCc2ccccc2)c1OC	x	x	-3	-19	0	5	x	x
COc1ccccc1CNC(=O)COC(=O)c1ccncc1	x	x	-20	-8	-4	2	4	x

Gathered by group: the compounds so far containing two or more sulfur atoms (two)
SMILES	PABP FP inh	eIF4H inh	CSC inhib	UUG fidelity	MT1-MMP act inh	MT1-MMP act inh RFP	HIV Env fusion	Rce1 inh	others
O=C(Nc1nc2c(s1)CCCC2)c1cccc(S(=O)(=O)N2CCCc3ccccc32)c1	2	-5	15	x	-3	-12	9	i
CCCCc1ccc(S(=O)(=O)NC(=O)C2(C)CCN2C(=O)CCc2cccs2)cc1 (stereo not given)	x	x	x	8	-1	2	-30	x

(next part)
SMILES	PABP FP inh	eIF4H inh	CSC inhib	UUG fidelity	MT1-MMP act inh	MT1-MMP act inh RFP	HIV Env fusion	Rce1 inh	others
CC1c2nc3ccccc3n2C(CC(=O)NCCCN2CCOCC2)C(=O)N1Cc1ccccc1 (stereo not given)	0	-3	-17	-10	1	4	7	i
Cn1c(CCc2ccccc2)n[nH]c1=S	5	0	-9	x	0	0	-12	i
FC(F)(F)Oc1ccc(Nc2nc3ccccc3o2)cc1	0	8	-14	-3	8	5	x	i
CCOC(=O)/C(=N/Nc1ccc(Cl)cc1)Sc1nnnn1-c1ccc(C)cc1	3	5	x	x	4	-1	6	i
COC(=O)/C(=C\c1ccc2c(c1)c1ccccc1n2C)NC(=O)c1ccccc1	-11	3	-15	-6	4	0	-6	i
CCOc1cc(NC(=S)NCC2CCCO2)c(OCC)cc1NC(=O)c1ccc(C)cc1 (stereo not given)	9	-6	3	x	-1	6	-12	i
COc1ccc(CCNC(=O)C(=O)NCC2OCCN2S(=O)(=O)c2ccccc2)cc1 (stereo not given)	-2	12	-8	-13	5	-6	x	i
N#CC(C#N)=Cc1ccc(-c2ccc(S(=O)(=O)N=C(N)N)cc2)o1	-11	38	9	31	-8	4	15	i
CCN1C(=O)C(O)(CC(=O)c2ccc(-n3cccc3)cc2)c2ccccc21 (stereo not given)	-3	3	-4	3	-4	-5	30	i
CC1(c2nnc(-c3ccc(F)cc3)o2)CC(c2ccc(Cl)cc2)=NO1 (stereo not given)	13	-3	6	-22	-6	3	3	i
CCC(C)C(=O)OCC1(c2ccc(C)cc2OC(=O)C(C)C)CO1 (stereo not given)	9	10	11	-8	-1	2	x	x
CC1CCN(C(=S)NC(=O)C2CCCCC2)CC1	-2	1	2	-23	2	2	x	i
O=C(NNC(=O)c1cccc(-n2cccc2)c1)c1ccc(F)cc1	x	x	4	-21	-2	-2	-18	i
Cn1c2ccc(F)cc2c2ncn(Cc3ccccn3)c(=O)c21	-7	2	-6	x	5	0	-19	i
O=C1C2CC=CCC2C(=O)N1CC1CCCO1 (stereo not given)	3	-2	-7	-13	-1	6	-32	i
O=C(NC1CC1)c1ccc2snnc2c1	18	1	-11	x	0	4	-13	i
Cc1nnc(SCC(=O)NC(=O)NC2CCCC2)n1N	-3	-2	-6	x	6	8	x	x
Cc1ccc(C(=O)OCC(=O)Nc2sc3c(c2C#N)CCC3)cc1	-9	-9	-3	-11	6	3	-1	i
Cc1ccc2c(c1)N(C(=O)CCC(=O)NCc1cccc(Cl)c1)CC(C)O2 (stereo not given)	-11	-6	6	4	2	-3	10	i
COc1cc(C)c(C(C)C)cc1S(=O)(=O)N1CCN(C)CC1	-2	7	-10	-18	-2	3	-30	i
Sc1nnc(-c2ccc(Cl)cc2)n1Cc1ccccc1	x	x	76*	-13	2	-1	x	x
S=c1[nH]nc(CN2CCCC2)n1Cc1ccccc1	-3	-8	-3	x	1	2	-10	i
O=C(Cc1ccc(S(=O)(=O)N2CCCC2)s1)NC1CCCCCC1	7	13	12	0	3	7	x	i
COc1ccc(OC)c(C2=NOC(C(=O)Nc3cccc(C(C)=O)c3)C2)c1 (stereo not given)	11	0	-4	11	-6	-3	-2	i
COc1ccc(OC)c(NC(=O)CN(C)CCOc2ccc(Br)cc2)c1	1	2	4	-6	3	1	6	x
Cc1ccc(NC(=O)CSc2nc(=O)n(CCCN(C)C)c3c2CCC3)c(C)c1	x	x	-7	-15	-1	4	-10	i
COc1ccc(C(CNS(=O)(=O)c2ccc(NC(C)=O)c(OC)c2)N2CCCCC2)cc1 (stereo not given)	x	x	-15	8	-7	-2	6	x
Cc1nnc(NC(=O)c2ccc(-c3ccc(Cl)cc3)o2)s1	x	x	-6	-4	4	1	-6	i
COC(=O)c1ccc(N2CCN(S(=O)(=O)c3ccccc3)CC2)c([N+](=O)[O-])c1	-9	1	-23	x	7	-6	34	i
Cc1cc(C)n(-c2nc(SCCN(C)C)c3c4c(sc3n2)CCCC4)n1	-13	0	-6	x	-15	-10	-15	i
CC1(C(=O)Nc2c(F)c(F)c(F)c(F)c2F)CC1(Br)Br (stereo not given)	-2	-5	-17	23	-1	0	24	i
COc1ccc(C(O)(CCN2CCCCC2)C2CCCCC2)cc1 (stereo not given)	7	-7	-2	-10	-2	4	4	i
CCc1cc2c(=O)c(-c3ccc4c(c3)OCCO4)coc2c(CN2CCCCC2C)c1O (stereo not given)	4	12	24	-7	-8	-14	11	i
O=C(NCc1ccncc1)c1cccc(S(=O)(=O)Nc2ccc(F)cc2)c1	x	x	x	-14	1	-14	19	x
Cc1n[nH]c(=O)c2c(NC(=O)COC(=O)c3cccc(OC(F)F)c3)oc(C)c12	x	x	10	-10	2	1	10	i
O=C(CCCNC(=O)c1ccc(Cl)cc1)Nc1ccccc1F	9	-6	-13	2	1	1	-1	i
Cc1c(C(=O)c2cccc([N+](=O)[O-])c2)c2ccccn2c1CCC#N	-4	14	5	12	8	-3	3	i
O=C(CCl)Nc1cc(-c2ccccc2)nn1-c1ccccc1	24	-2	20	-19	-5	-2	37	i
CCOC(=O)N1CCN(S(=O)(=O)c2ccc(Br)s2)CC1	-6	7	-2	-14	-2	-1	x	i
CCN(CC)S(=O)(=O)c1cc(C(=O)Nc2cc(S(=O)(=O)N3CCOCC3)ccc2N2CCCC2)ccc1F	x	x	x	-3	-3	3	-14	x
CC1=C(C(=O)Nc2cccc(C(=O)NCc3ccccc3C)c2)SCCO1	3	-17	8	-11	1	0	0	i
CCOC(=O)C1CCN(C(=O)CSc2cc(=O)n(C)c3ccccc23)CC1	9	1	-8	7	2	-3	-9	i
COC(=O)NNC(=O)c1ccc(C)c(Br)c1	-1	-4	-3	-20	0	1	-33	i
Cc1cc2oc(=O)cc(-c3ccccc3)c2c(C)c1-c1ccc(C#N)cc1	x	x	x	-5	-1	-10	-97	x
COCCN(C(=O)COC(=O)Cc1cccc2ccccc12)c1c(N)n(Cc2ccccc2)c(=O)[nH]c1=O	-4	-4	-3	6	-2	-6	x	i

Among those listed so far, these contain a thiophene ring, fused or not.
SMILES	PABP FP inh	eIF4H inh	CSC inhib	UUG fidelity	MT1-MMP act inh	MT1-MMP act inh RFP	HIV Env fusion	Rce1 inh	others
COc1ccc(-c2sc3cc4c(cc3c2C#CC2(N)CCCCC2)OCO4)cc1	x	x	130*	18	-3	-1	-32	x
CCCCc1ccc(S(=O)(=O)NC(=O)C2(C)CCN2C(=O)CCc2cccs2)cc1 (stereo not given)	x	x	x	8	-1	2	-30	x
Cc1ccc(C(=O)OCC(=O)Nc2sc3c(c2C#N)CCC3)cc1	-9	-9	-3	-11	6	3	-1	i
O=C(Cc1ccc(S(=O)(=O)N2CCCC2)s1)NC1CCCCCC1	7	13	12	0	3	7	x	i
Cc1cc(C)n(-c2nc(SCCN(C)C)c3c4c(sc3n2)CCCC4)n1	-13	0	-6	x	-15	-10	-15	i
CCOC(=O)N1CCN(S(=O)(=O)c2ccc(Br)s2)CC1	-6	7	-2	-14	-2	-1	x	i
